# Screening results deposited in PubChem BioAssay by National Center for Advancing Translational Sciences (NCATS).
# miR-21 FLuc = qHTS Assay for Modulators of miRNAs and/orActivators of miR-21; 340,000 tested, under 10 active; Potency, µM (doses to about 38.3 µM), for the others: at the highest dose reporter change, positive = more light; HeLa miR-21 FLuc reporter, luciferase, 48 h; AID 2288, 2010; active = well fitted rising curve with a large enough effect; inconclusive = small, poorly fitted or top-dose-only effect; inactive = no such curve, though single readings can be large or run the other way;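 note: % of control where 0% means no effect; miR-21 action dims this reporter so a rising signal means less miR-21 action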
#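 Luminescence from a firefly luciferase reporter carrying a miR-21 binding site downstream, stably expressed under a CMV promoter in HeLa cells that make miR-21 endogenously, reports miRNA modulation after 48 h compound exposure up to approximately 40uM final.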
# GLA inh pH 4.5 = qHTS Assay for Inhibitors of Human alpha-Galactosidase at pH 4.5; Alpha-galactosidase A (Homo sapiens), P06280; purified enzyme, 4-MU-alpha-Gal fluorescence, pH 4.5; activity change, negative = inhibition, % at 105 µM; 230,000 tested, under 10 active; AID 1467, 2008; inconclusive = small, poorly fitted or top-dose-only inhibition, or a rising curve; inactive = flat fitted curve, though single readings scatter; no compound was filed as active;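 note: 0% = full activity with enzyme and -100% = basal without enzyme; dose as in the result columns while the protocol names 77 µM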
# Target sequence (P06280 whole entry, looked up): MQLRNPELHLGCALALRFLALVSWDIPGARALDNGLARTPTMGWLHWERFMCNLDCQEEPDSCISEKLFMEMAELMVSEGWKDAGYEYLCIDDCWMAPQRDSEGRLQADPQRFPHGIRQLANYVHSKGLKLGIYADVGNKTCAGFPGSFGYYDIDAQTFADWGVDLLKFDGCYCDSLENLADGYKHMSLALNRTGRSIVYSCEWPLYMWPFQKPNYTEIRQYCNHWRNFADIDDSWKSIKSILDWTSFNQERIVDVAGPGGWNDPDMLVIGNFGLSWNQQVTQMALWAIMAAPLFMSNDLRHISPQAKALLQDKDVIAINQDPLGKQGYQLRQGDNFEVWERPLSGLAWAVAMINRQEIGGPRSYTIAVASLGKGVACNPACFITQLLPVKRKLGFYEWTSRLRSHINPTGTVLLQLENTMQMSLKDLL
# Rango dissoc inh = qHTS Assay for Inhibitors of RanGTP induced Rango (Ran-regulated importin-beta cargo) - Importin beta complex dissociation. Snurportin-1 (Homo sapiens) + GTP-binding nuclear protein Ran (Homo sapiens) + Importin …. Biochemical FRET Rango-importin beta, RanGTP-induced dissociation. Potency, µM (doses to about 46.1 µM), without a hit: at the top dose activity change, negative = inhibition. 0.071% of 340,000 active. AID 540253, 2011; active means falling FRET ratio curve, often poorly fitted, with flat reads before Ran was added; inconclusive means other falling curves, or compound fluorescence or quenching; inactive means flat or rising ratio curve;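 note: potency is the fitted concentration of half-maximal effect; % of control where 0% means no effect; nearly all actives have a fitted effect of over 45% in size; -100% = wells without RanGTP and RCC1; the record marks most hits as doubtful in a second field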
#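 Recombinant Rango FRET biosensor (EYFP–snurportin 1 IBB–cerulean CFP10) at 0.1 uM premixed with 0.25 uM importin beta in PBS, 1 mM DTT, 0.02% Tween-20, 0.1% BSA. Compound added 5 min; RanGTP-RCC1 (0.6 uM Ran, 2 mM GTP, 0.2 uM RCC1) then triggers release, read at 45 min.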
# Rango complex inh = qHTS Assay for Inhibitors of Rango (Ran-regulated importin-beta cargo) - Importin beta complex formation. Importin subunit beta-1 (Homo sapiens), Q14974. Potency, µM (series often up to 92.2 µM), for inactives: at the highest dose inhibition of complex formation. Rango CFP/YFP FRET sensor + importin beta, 45 min. 0.031% of 340,000 active; active = rising FRET ratio curve, often small or poorly fitted; inconclusive = mostly compound fluorescence or quenching in the first reads; inactive = flat curves in all reads;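 note: potency is the fitted concentration of half-maximal effect; 0% = DMSO wells and 100% = buffer wells lacking importin beta; nearly all actives have a fitted effect of over 15% in size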
#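 Inhibition scored from the CFP 486 nm/YFP 530 nm FRET ratio 45 min after adding 0.125 microM importin beta to 50 nM Rango biosensor preincubated 5 min with compound (room temperature, PBS with DTT, Tween-20, BSA). No-importin wells as positive control.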
# Starred values were filed as active, the others as inactive; ? = inconclusive; · = not tested or not shown.
# Start of the data: the first 2 entries as a preview:
# Codes: A = miR-21 FLuc; B = GLA inh pH 4.5; C = Rango dissoc inh; D = Rango complex inh
Cc1cccc(C)c1NC(=O)NC1CCc2ccccc21 (centres undefined)
  A: -4%; B: ·; C: -8%; D: 3.4%
Cc1cccc(Nc2nnc(SCC(=O)NC(=O)Nc3ccc4c(c3)OCCO4)s2)c1
  A: -6%; B: 4; C: 1%; D: 0.4%

# Results, previewed entries included:
# Codes: A = miR-21 FLuc; B = GLA inh pH 4.5; C = Rango dissoc inh; D = Rango complex inh
Cc1cccc(C)c1NC(=O)NC1CCc2ccccc21 (centres undefined)
  A: -4%; B: ·; C: -8%; D: 3.4%
Cc1cccc(Nc2nnc(SCC(=O)NC(=O)Nc3ccc4c(c3)OCCO4)s2)c1
  A: -6%; B: 4; C: 1%; D: 0.4%
O=[N+]([O-])c1ccc(OCC(O)CN(C2CCCCC2)C2CCCCC2)cc1 (centres undefined)
  A: -6%; B: -8; C: -1%; D: -0.9%
C#CCN1C=C(C(=O)OCC)C(C)NS1(=O)=O (centres undefined)
  A: ·; B: ·; C: 0%; D: -0.8%
COc1ccc(CC(=O)Oc2ccc(F)cc2)cc1
  A: 0%; B: ·; C: -5%; D: 0.9%
CC(OC(=O)c1ccc(Cl)nc1)C(=O)Nc1ccc2c(c1)OCO2 (centres undefined)
  A: ·; B: ·; C: 9%; D: -0.9%
COc1ccc(CN2C(=O)c3c(c(C)n(C)c3C)C2C(=O)NC2CCC(C)CC2)cc1 (centres undefined)
  A: -1%; B: -5; C: -5%; D: -3.3%
Nc1c(-c2ccccc2)sc2ccc3ccccc3[n+]12
  A: -27%; B: ·; C: -30%; D: 4.2%
CCOC(=O)C(Oc1ccc2c(-c3ccc(OC)cc3)cc(=O)oc2c1C)c1ccccc1 (centres undefined)
  A: 3%; B: 4; C: -7%; D: -1.3%
O=S(=O)(Nc1ncccn1)c1ccccc1
  A: 1%; B: ·; C: -8%; D: 0.1%
CC(=O)c1cc(CN2CCC(n3nccc3NC(=O)c3ccccc3)CC2)cs1
  A: -1%; B: ·; C: -1%; D: -0.4%
CN(C)C(=O)COc1ncnc2scc(-c3ccc(F)cc3)c12
  A: 3%; B: -5; C: -15%; D: -1.4%
Cc1nc(SCC(=O)Nc2ccccc2Cl)oc1C
  A: -6%; B: ·; C: -3%; D: 4.6%
Cc1cc(S(=O)(=O)NCC(c2ccc(F)cc2)N2CCN(C)CC2)ccc1F (centres undefined)
  A: ·; B: ·; C: 5%; D: -1.4%
COc1cc(CN2CCc3ccc(NC(=O)CCc4ccccc4OC)cc3C2)ccc1O
  A: -1%; B: ·; C: -27%; D: ?
CCOc1ccc(CCNC(=O)c2cc([N+](=O)[O-])ccc2N2CCOCC2)cc1OCC
  A: -1%; B: ·; C: 11%; D: -0.1%
COc1ccc(C=O)c(OCc2cn(CC(=O)c3ccc(O)cc3)nn2)c1
  A: ·; B: ·; C: 7%; D: 4.5%
Nc1c(C(=O)c2ccco2)oc2ccccc12
  A: -27%; B: -3; C: ·; D: ·
COc1cc(-c2cc(-c3ccc(O)cc3)nc(N)c2C#N)ccc1O
  A: 12%; B: 2; C: ?; D: ?
O=C(O)c1cc2ncc(-c3[nH]ncc3[N+](=O)[O-])cn2n1
  A: 0%; B: -16; C: 10%; D: 2.1%
c1ccc2c(Nc3nncs3)c3ccccc3nc2c1
  A: 0%; B: 3; C: -11%; D: -2.4%
CCc1ccc2oc(-c3cc(N)cc(C)c3O)nc2c1
  A: -80%; B: 0; C: -17%; D: 0.2%
COc1ccccc1C(=O)OCn1nnc2ccccc2c1=O
  A: -5%; B: -2; C: -3%; D: -0.6%
O=C(COc1ccccc1F)N1CCN(S(=O)(=O)/C=C/c2ccccc2)CC1
  A: 0%; B: -4; C: 4%; D: 2.9%
O=C(NCC1CCN(c2ccc(S(=O)(=O)N3CCOCC3)cc2)CC1)c1cccc(Cl)c1
  A: 12%; B: 0; C: -12%; D: 2.0%
CCNc1ccc(C(=O)O)cc1N
  A: -47%; B: -16; C: ?; D: -4.7%
CCC(C)C(NC(=O)c1ccc(Cl)cc1Cl)C(=O)O (centres undefined)
  A: -4%; B: 7; C: 2%; D: 0.5%
O=C(CCc1n[nH]c(=O)[nH]c1=O)N/N=C/c1ccc(Br)o1
  A: -3%; B: 2; C: -10%; D: 2.9%
CCOC(=O)N1CCC(N2C(=O)c3ccccc3C2Nc2ccc(S(=O)(=O)N3CCOCC3)cc2)CC1 (centres undefined)
  A: -2%; B: -7; C: 6%; D: -2.4%
O=C(CSc1nc2ccc(Cl)cc2[nH]1)NCCc1ccccc1
  A: -8%; B: -2; C: -9%; D: -4.0%
O=C(CN1CCN(CC(=O)Nc2ccccc2F)CC1)Nc1ccc2c(c1)OCCO2
  A: 3%; B: 7; C: -6%; D: -0.4%
COc1ccc(-n2nnnc2SCC(=O)NCc2cccs2)cc1
  A: 0%; B: -11; C: 45%; D: 1.7%
COc1ccccc1NS(=O)(=O)c1cccc(C(=O)N2CC(C)OC(C)C2)c1 (centres undefined)
  A: ·; B: ·; C: 7%; D: -0.3%
COc1ccc(S(=O)(=O)N2CCN(c3ccc(F)cc3)CC2)cc1C(=O)N1CCCC1
  A: 1%; B: ·; C: 11%; D: 4.5%
CCCc1nc(SCC(=O)N2CCCC2)c2ccccc2n1
  A: 0%; B: 0; C: -6%; D: 2.0%
O=C(Nc1ccc2c(c1)oc1ccccc12)C1CC1
  A: -43%; B: -5; C: 16%; D: -3.1%
CN(Cc1cccnc1)C(=O)CC1C(=O)NCCN1Cc1ccc(-c2ccccc2)cc1 (centres undefined)
  A: 21%; B: 9; C: 0%; D: 1.8%
CCCc1cc(C(=O)NC2CCCN(Cc3ccccc3F)C2)no1 (centres undefined)
  A: -3%; B: ·; C: -15%; D: ?
O=C(CSc1nc(-c2ccccc2Cl)ns1)NCc1ccc2c(c1)OCO2
  A: -5%; B: -6; C: 5%; D: 0.6%
O=C1C(=O)N(Cc2cccc([N+](=O)[O-])c2)c2ccccc21
  A: 4%; B: 4; C: -10%; D: 0.6%
COc1ccccc1CN(C)C(=O)C1(c2ccc(Cl)cc2)CC1
  A: 8%; B: 2; C: 10%; D: -1.6%
COc1ccc(NS(=O)(=O)c2ccc(Cl)c(C(=O)O)c2)cc1S(=O)(=O)N1CCCCC1
  A: -2%; B: 10; C: -1%; D: -1.3%
COC(=O)CSc1nccc(-c2ccc(F)cc2)c1C#N
  A: 3%; B: -1; C: ?; D: ?
O=Cc1cnc2ccccc2c1-c1ccccc1
  A: 3%; B: ·; C: -22%; D: -1.0%
CCn1c(=NC(=O)CSC(C)=O)sc2ccccc21
  A: -10%; B: 5; C: -3%; D: -2.2%

# Part of the list above, with two lines to a compound:
# Below each SMILES – miR-21 FLuc, GLA inh pH 4.5, Rango dissoc inh, Rango complex inh
CCOC(=O)N1CCC(N2C(=O)c3ccccc3C2Nc2ccc(S(=O)(=O)N3CCOCC3)cc2)CC1 (centres undefined)
→ -2%, -7, 6%, -2.4%
O=C(CSc1nc2ccc(Cl)cc2[nH]1)NCCc1ccccc1
→ -8%, -2, -9%, -4.0%
O=C(CN1CCN(CC(=O)Nc2ccccc2F)CC1)Nc1ccc2c(c1)OCCO2
→ 3%, 7, -6%, -0.4%
COc1ccc(-n2nnnc2SCC(=O)NCc2cccs2)cc1
→ 0%, -11, 45%, 1.7%
COc1ccccc1NS(=O)(=O)c1cccc(C(=O)N2CC(C)OC(C)C2)c1 (centres undefined)
→ ·, ·, 7%, -0.3%
COc1ccc(S(=O)(=O)N2CCN(c3ccc(F)cc3)CC2)cc1C(=O)N1CCCC1
→ 1%, ·, 11%, 4.5%
CCCc1nc(SCC(=O)N2CCCC2)c2ccccc2n1
→ 0%, 0, -6%, 2.0%
O=C(Nc1ccc2c(c1)oc1ccccc12)C1CC1
→ -43%, -5, 16%, -3.1%
CN(Cc1cccnc1)C(=O)CC1C(=O)NCCN1Cc1ccc(-c2ccccc2)cc1 (centres undefined)
→ 21%, 9, 0%, 1.8%
CCCc1cc(C(=O)NC2CCCN(Cc3ccccc3F)C2)no1 (centres undefined)
→ -3%, ·, -15%, ?
O=C(CSc1nc(-c2ccccc2Cl)ns1)NCc1ccc2c(c1)OCO2
→ -5%, -6, 5%, 0.6%
O=C1C(=O)N(Cc2cccc([N+](=O)[O-])c2)c2ccccc21
→ 4%, 4, -10%, 0.6%
COc1ccccc1CN(C)C(=O)C1(c2ccc(Cl)cc2)CC1
→ 8%, 2, 10%, -1.6%
COc1ccc(NS(=O)(=O)c2ccc(Cl)c(C(=O)O)c2)cc1S(=O)(=O)N1CCCCC1
→ -2%, 10, -1%, -1.3%
COC(=O)CSc1nccc(-c2ccc(F)cc2)c1C#N
→ 3%, -1, ?, ?
O=Cc1cnc2ccccc2c1-c1ccccc1
→ 3%, ·, -22%, -1.0%

# (listing goes on)
# Codes: A = miR-21 FLuc; B = GLA inh pH 4.5; C = Rango dissoc inh; D = Rango complex inh
CCOc1ccc(-n2c(C)cc(/C=N/Nc3nc(C)cc(=O)[nH]3)c2C)cc1
  A: 1%; B: -13; C: 1%; D: 1.3%
Cc1cccc(Nc2c(O)nc[nH]c2=O)c1
  A: ·; B: ·; C: -8%; D: 4.3%
COc1ccc(CNc2nc3ccccc3n2CCN2CCCCC2)c(OC)c1
  A: 9%; B: -6; C: 8%; D: -0.6%
Cc1ccc(CNC(=O)/C=C/C(=O)O)cc1
  A: 1%; B: 7; C: -2%; D: -1.9%
Fc1cc(NC(=S)NCc2ccc(CNC(=S)Nc3ccc(Cl)c(F)c3)cc2)ccc1Cl
  A: 7%; B: 3; C: 20%; D: 3.2%
O=C(NCc1ccc(-c2nc3ccccc3s2)cc1)c1cc2ccccc2o1
  A: -12%; B: -2; C: 11%; D: 0.2%
COc1ccccc1/C=N/NC(=O)CSc1cc(C)nc2ccccc12
  A: -1%; B: 6; C: 0%; D: 0.9%

# This is a subset; count on the stated rates, not on these rows.
